Source: PubChem BioAssay
TR SRC2 fluor cs: alters Texas Red total fluorescence, flagging assay interference. TRb/SRC2 Texas Red total fluorescence interference. Potency, µM (doses to about 106 µM), for inactives: at the top dose fluorescence change, negative = quenching. 280,000 compounds, 0.29% hits. AID 1479; active = well fitted curve in either direction with a large enough effect; inconclusive = small, poorly fitted or top-dose-only effect; note: % is set by controls: 0 for no effect and ±100 for the full control effect
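Human TRb ligand-binding domain at 0.6 uM with 20 nM Texas Red SRC2 peptide in Tris buffer containing 1 uM T3 and 5% DMSO, incubated with compound 5 h at ambient temperature. Total fluorescence (555/632 nm) calculated as parallel + 2 × perpendicular.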
RECQ1 helicase: RECQ1 (human) helicase inhibition; RECQ1 DNA unwinding, red fluorescence kinetic read; Potency, µM (top dose mostly 57.3 µM), inactives show at the top dose activity, negative = inhibition, actives largely listed as inhibitors; 240,000 compounds, 0.54% hits; AID 2549; P46063;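 note: plate controls were vehicle for no effect and no enzyme for full effect; nearly all actives have a fitted effect of over 30% in size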
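RECQ1T1 50 nM; forked duplex (20 bp + 30-nt ss tails) 200 nM, ATP 2 mM final; pH 8.0, 2 mM MgCl2, 2.5 ug/ml poly(dI-dC); 15 min compound preincubation; discontinuous kinetic read over 2 h at RT.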
HTT ATP protect: protects HTT-Q103 PC12 cells, measured by ATP; 230,000 compounds, 0.14% hits; AID 1471; Potency, µM (highest dose often 56.4 µM), inactives show cytoprotection (ATP increase), usual class: activators; PC12 HTT-Q103 induced, cytoprotection, ATP luminescence, 40 h;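 note: % of control where 0% means no effect; nearly all actives have a fitted effect of over 45% in size; toxic huntingtin expression switched on by the ecdysone agonist tebufenozide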
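Stable PC12 Q103-GFP cells in serum-supplemented, phenol red-free DMEM; induction by tebufenozide at 100 nM final; compound dose series; cell viability quantified luminescently from ATP.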
Tau ThT inhib: tau fibrillization inhibition (ThT binding). AID 1460. Potency, µM (highest dose often 57.4 µM), without a hit: at the top dose activity, negative = inhibition, hits mostly inhibitors. recombinant tau K18 P301L, heparin-induced fibrillization, ThT fluorescence. P10636. 270,000 compounds, 2.1% hits; note: % is set by controls: 0 for no effect and ±100 for the full control effect; nearly all actives have a fitted effect of over 55% in size
Target sequence (P10636 561-689 P618L limits assumed): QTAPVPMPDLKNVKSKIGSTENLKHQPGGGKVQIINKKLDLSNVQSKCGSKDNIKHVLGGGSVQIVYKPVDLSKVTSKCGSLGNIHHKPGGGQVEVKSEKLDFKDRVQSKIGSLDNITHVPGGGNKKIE
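Recombinant human tau K18 fragment […] carrying P301L, 15 uM unlabeled plus 0.24 uM Alexa 594-labeled, was fibrillized with 20 uM heparin in 100 mM sodium acetate pH 7 for 6 hr at 37 C; 30 uM ThT fluorescence read after 1 hr.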
TRb-SRC2 inh: inhibitors of human thyroid hormone receptor beta-SRC2 interaction | Potency, µM (series often up to 106 µM), inactives show at the top dose activity change, negative = inhibition, hits mostly inhibitors | TRbeta-SRC2 peptide binding, fluorescence polarization; receptor liganded with 1 µM T3 | AID 1469 | 280,000 compounds, 0.065% hits;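 note: plate controls were bound peptide for no effect and peptide without receptor for full effect; nearly all actives have a fitted effect of over 50% in size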
Target sequence (P10828 whole entry, looked up): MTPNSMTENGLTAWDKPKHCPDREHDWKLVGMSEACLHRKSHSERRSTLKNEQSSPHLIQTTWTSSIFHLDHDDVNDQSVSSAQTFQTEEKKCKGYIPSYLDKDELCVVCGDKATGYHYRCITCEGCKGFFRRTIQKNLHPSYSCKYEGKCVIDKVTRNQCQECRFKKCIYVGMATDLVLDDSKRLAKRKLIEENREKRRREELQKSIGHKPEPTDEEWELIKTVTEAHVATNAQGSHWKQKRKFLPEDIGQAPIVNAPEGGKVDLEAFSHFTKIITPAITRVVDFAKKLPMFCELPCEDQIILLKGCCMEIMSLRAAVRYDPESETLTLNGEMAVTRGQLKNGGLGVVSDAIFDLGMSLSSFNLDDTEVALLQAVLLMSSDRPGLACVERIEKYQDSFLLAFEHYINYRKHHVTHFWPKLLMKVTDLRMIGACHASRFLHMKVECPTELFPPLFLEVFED
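Binding of a 20-amino-acid Texas Red SRC2 peptide (20 nM) to TRb ligand-binding domain (0.6 uM) with agonist T3 at 1 uM was followed by fluorescence polarization after a 5 hr room-temperature incubation.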
Tau fluor cs: counter-screen for tau fibril formation inhibitors; Potency, µM (highest dose often 57.7 µM), inactives show at the highest dose activity change, negative = decrease; AID 1463; 280,000 compounds, 0.93% hits; tau K18 P301L Alexa594 fluorescence, heparin fibrillization; note: % is set by controls: 0 for no effect and ±100 for the full control effect; nearly all actives have a fitted effect of over 55% in size
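Human K18 P301L tau (15 uM unlabeled plus 0.24 uM Alexa 594-labeled, final) in 100 mM sodium acetate pH 7 was mixed with compound and 20 uM heparin and incubated 6 hr at 37 C.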
Tau fibril FP: blocks human tau fibril formation measured by polarization; P10636; K18 P301L tau heparin fibrillization, Alexa594 FP, 6 h; Potency, µM (top dose mostly 57.7 µM), without a hit: at the highest dose activity, negative = inhibition, hits mostly inhibitors; 280,000 compounds, 0.39% hits; AID 1468; note: % is set by controls: 0 for no effect and ±100 for the full control effect; nearly all actives have a fitted effect of over 55% in size
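Heparin (20 uM) drove fibril formation of recombinant tau K18 P301L, 15 uM unlabeled with 0.24 uM Alexa 594 label, for 6 hr at 37 C in 100 mM sodium acetate pH 7. Fluorescence polarization (555/632 nm) read 1 hr after 30 uM ThT.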
Numbers without * were called inactive; i = inactive; ? = inconclusive; / = not tested or not shown; & = joins results of further samples; [ ] = remark or other dose. Unless noted, calls come from the whole dose curve; as a rule, active = well fitted curve in the direction sought with a large enough effect; inconclusive = small, poorly fitted or top-dose-only effect, or another doubt; inactive = no such curve, though single readings can be large; an effect the other way counts as inactive or inconclusive. Potency is the fitted concentration of half-maximal effect.

SMILES | TR SRC2 fluor cs | RECQ1 helicase | HTT ATP protect | Tau ThT inhib | TRb-SRC2 inh | Tau fluor cs | Tau fibril FP
CC(=O)c1cn(Cc2ccccc2)c(=O)n(Cc2ccc(F)cc2)c1=O | -1% | -9% | -20% | -3% | 4% | -12% | 6%
CN(C)c1ccc(O)c2c1CC1CC3[C@@H](N(C)C)C(=O)C(C(N)=O)=C(O)[C@]3(O)C(=O)C1=C2O (stereo partly drawn) | -14% | ? | / | ? | -3% | ? | -9%
COC(=O)CCN(C(=O)C1C2CC3CC(C2)CC1C3)c1ccccn1 (stereo not drawn) | -1% | -13% | 0%[10 µM] | -10% | -7% | -10% | -1%
N#Cc1c(SCC(=O)O)nc(N2CCCCC2)c2c1CCCC2 | 2% | -9% | -14% | -8% | 7% | 7% | 6%
c1ccc(-c2noc(-c3cccs3)n2)nc1 | 1% | i | -38%[10 µM] | -13% | -7% | -4% | -3%
O=C(c1ccccc1)N1CCN(C2CCCCC2)CC1 | -4% | 3% | 30%[10 µM] | 5% | -1% | -2% | -9%
O=C(Cc1ccc(F)cc1)N/N=C/c1ccc(-c2ccc(Cl)c(C(=O)O)c2)o1 | 0% | i | / | -1% | -10% | 3% | 6%
Cc1cccc(C(=O)Nc2nnc(-c3ccncc3)o2)c1 | -1% | -27% | -3% | 0% | -1% | -10% | -12%
CC1(C)CC(C(CCN(Cc2ccccc2)C(=O)c2ccco2)c2ccc(F)cc2)CCO1 (stereo not drawn) | -3% | -5% | 0%[10 µM] | ? | -2% | -13% | -1%
COC(=O)c1cc(=O)nc2sc3cc(OC)ccc3n12 | 0% | -2% | 8%[1.9 µM] | -12% | 2% | -1% | 2%
Cc1ccc(-c2cc(C(=O)NCc3cnn(C)c3C)c3cc(Br)ccc3n2)cc1 | -18%&1% | -2% | -9% | ? | 2%&1% | ? | -5%&-9%
COc1cc(Br)c(CC(=O)O)cc1OC | 1% | -6% | -3% | -2% | 0% | 2% | 0%
COc1ccc2c(=O)c3c(=O)n(-c4ccccc4)c(-c4ccc(C)cc4)nc3oc2c1 | -2% | 1% | 5%[10 µM] | -8% | -1% | 5% | 3%
CCc1ccc(C(c2ccc(CC)cc2)C(Cl)Cl)cc1 | 0% | -8% | -6% | / | 8% | / | /
COc1ccc(C(=O)Nc2ncc(C)s2)cc1S(=O)(=O)N1CCCC1 | 5% | -5% | 0%[10 µM] | -2% | 5% | -6% | 2%
COc1ccc(C(=O)NNC(=S)NC(=O)c2ccc(Br)o2)cc1OC | -1% | i | / | ? | -9% | 9% | -1%
CSc1nc(N2CCOCC2)c2c(c1C#N)CCCCC2 | -5% | -5% | -34%[10 µM] | -13% | -11% | -11% | 1%
COc1cccc(/C=N\n2c(C)nnc2C)c1OC | -1% | -5% | -25% | -5% | 4% | -11% | -8%
Cc1ccc(S(=O)(=O)N(C)CCCC(=O)NC(C)(C)C)cc1 | -1% | i | -39%[inhibitor] | 9% | 0% | 7% | -2%
Cc1sc2ncn(CC(=O)NCCCC(=O)N3CCN(c4ccccc4)CC3)c(=O)c2c1C | -2% | -1% | 3% | -9% | -21% | -13% | -12%
CCNC(=O)N1C(=O)C2(OCCO2)c2ccccc21 | -6% | -2% | 0% | -4% | 3% | 3% | -4%
Cc1nc(N2CCN(C(=O)c3ccco3)CC2)c2c3c(sc2n1)CC(C)CC3 (stereo not drawn) | -1% | -11% | -14%[10 µM] | ? | -3% | -11% | 14%
CC(C)c1ccc(OCC(=O)NC(=S)Nc2ccc3c4c(cccc24)CC3)cc1 | -2% | -13% | -6% | -17% | 1% | -12% | -6%
C=CCNc1nc(-c2ccccc2)c(C(=O)OCC)cc1C#N | -2% | i | -45%[inhibitor] | -9% | 2% | -18% | 3%

Pulled by compound from the list above (two):
SMILES | TR SRC2 fluor cs | RECQ1 helicase | HTT ATP protect | Tau ThT inhib | TRb-SRC2 inh | Tau fluor cs | Tau fibril FP
C=CCNc1nc(-c2ccccc2)c(C(=O)OCC)cc1C#N | -2% | i | -45%[inhibitor] | -9% | 2% | -18% | 3%
c1ccc(-c2noc(-c3cccs3)n2)nc1 | 1% | i | -38%[10 µM] | -13% | -7% | -4% | -3%

(continued)
SMILES | TR SRC2 fluor cs | RECQ1 helicase | HTT ATP protect | Tau ThT inhib | TRb-SRC2 inh | Tau fluor cs | Tau fibril FP
COc1cc(OC)cc(C(=O)N2CCC(n3c(C)nc4cc(F)ccc43)CC2)c1 | 2% | -2% | -13% | -8% | 9% | -6% | -2%
CC(Sc1nc(N2CCCCC2)c2c(c1C#N)CCCC2)C(=O)O (stereo not drawn) | -3% | -2% | -4% | ? | -2% | -4% | 1%
Cc1cc(C)c(C(=O)N2CCCC(CNC(=O)C3(c4ccc(Cl)cc4)CC3)C2)c(=O)[nH]1 (stereo not drawn) | 2% | 7% | -32%[10 µM] | -9% | -5% | -17% | 2%
CCOc1cc(C)c(Cl)cc1S(=O)(=O)NCc1ccc2c(c1)OCO2 | -2% | i | 13%[0.074 µM] | -7% | 1% | -15% | 2%
N#Cc1nc(Cc2ccccc2)oc1NCc1ccccc1 | -6% | 13% | -8%[10 µM] | -8% | -4% | -13% | 0%
CCOC(=O)c1ccc2nc(C)c(CCC(C)=O)c(Cl)c2c1 | -1% | 0% | -33% | -15% | 3% | 4% | 4%
S=c1[nH]nc(COc2ccccc2)n1/N=C/c1ccc(Br)s1 | -3% | -2% | -56%[inhibitor] | ? | 2% | ? | 4%
CCN1CCN(c2cc3c(cc2F)c(=O)c(C(=O)O)cn3C2CC2)CC1 | 0%&1% | -5%&-1% | -40%[inhibitor] | ? | 9%&1% | -12%&-2% | -16%&-2%

In the list so far, these have four or more nitrogen atoms.
SMILES | TR SRC2 fluor cs | RECQ1 helicase | HTT ATP protect | Tau ThT inhib | TRb-SRC2 inh | Tau fluor cs | Tau fibril FP
Cc1cccc(C(=O)Nc2nnc(-c3ccncc3)o2)c1 | -1% | -27% | -3% | 0% | -1% | -10% | -12%
Cc1ccc(-c2cc(C(=O)NCc3cnn(C)c3C)c3cc(Br)ccc3n2)cc1 | -18%&1% | -2% | -9% | ? | 2%&1% | ? | -5%&-9%
COc1cccc(/C=N\n2c(C)nnc2C)c1OC | -1% | -5% | -25% | -5% | 4% | -11% | -8%
Cc1sc2ncn(CC(=O)NCCCC(=O)N3CCN(c4ccccc4)CC3)c(=O)c2c1C | -2% | -1% | 3% | -9% | -21% | -13% | -12%
Cc1nc(N2CCN(C(=O)c3ccco3)CC2)c2c3c(sc2n1)CC(C)CC3 (stereo not drawn) | -1% | -11% | -14%[10 µM] | ? | -3% | -11% | 14%
S=c1[nH]nc(COc2ccccc2)n1/N=C/c1ccc(Br)s1 | -3% | -2% | -56%[inhibitor] | ? | 2% | ? | 4%

These rows are one share of the data; count on the stated rates, not on these rows.
